KCNQ2 block = KCNQ2 channel blockers in CHO-K1 cells – cell-based, FluxOR thallium flux, B-score, primary screen (AID 2156) | O88943 | 20 min; active compounds read low; only compounds with negative scores are shown here; some inactives read as strong as hits | B-score at 10 µM | 310,000 compounds, 1.1% hits;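 active = fluorescence ratio B-score at most minus 3 library SDs, with starting brightness B-score within 2 library SDs, cut at about -5.5 in these data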
Target sequence (O88943 whole entry, looked up): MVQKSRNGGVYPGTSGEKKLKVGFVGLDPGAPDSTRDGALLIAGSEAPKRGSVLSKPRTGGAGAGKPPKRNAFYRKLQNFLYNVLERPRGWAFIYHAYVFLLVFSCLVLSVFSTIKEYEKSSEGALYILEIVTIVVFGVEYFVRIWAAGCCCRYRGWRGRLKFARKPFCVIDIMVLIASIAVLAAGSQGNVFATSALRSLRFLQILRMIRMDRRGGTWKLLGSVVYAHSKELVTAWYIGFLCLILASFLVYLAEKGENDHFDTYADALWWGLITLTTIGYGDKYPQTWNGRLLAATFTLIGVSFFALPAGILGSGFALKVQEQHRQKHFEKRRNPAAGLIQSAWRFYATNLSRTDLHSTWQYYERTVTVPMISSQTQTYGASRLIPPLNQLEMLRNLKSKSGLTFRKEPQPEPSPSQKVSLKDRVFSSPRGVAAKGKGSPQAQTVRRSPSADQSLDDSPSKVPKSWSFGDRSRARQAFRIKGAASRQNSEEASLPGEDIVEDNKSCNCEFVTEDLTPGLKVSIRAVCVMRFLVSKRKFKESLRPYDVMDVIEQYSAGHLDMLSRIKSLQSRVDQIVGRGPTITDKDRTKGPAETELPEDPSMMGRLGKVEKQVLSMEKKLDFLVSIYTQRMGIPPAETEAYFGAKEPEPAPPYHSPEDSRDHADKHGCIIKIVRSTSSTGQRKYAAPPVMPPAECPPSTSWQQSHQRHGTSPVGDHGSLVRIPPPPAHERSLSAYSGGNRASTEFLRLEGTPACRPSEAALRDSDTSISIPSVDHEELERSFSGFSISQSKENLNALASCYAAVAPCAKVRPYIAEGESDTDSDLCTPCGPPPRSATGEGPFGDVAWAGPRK
KCNQ2 block baseline = recorded beside KCNQ2 block, whose call it bears; B-score; measured here: initial fluorescence intensity artifact check;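 brightness before thallium and not channel activity; 0 = typical well and far values either way flag optical interference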
Numbers without * were called inactive; i = inactive. Only part of the results is shown; count on the stated rates, not on these rows.

KCNQ2 block	KCNQ2 block baseline	SMILES
i	0.33	COc1ccc(C2C=C(c3ccccc3)Nc3nc(CCCO)nn32)cc1 (stereo not drawn)
i	0.48	OCCCNc1nc(-c2ccc(Cl)cc2)nnc1-c1ccc(Br)cc1
i	-0.21	CC(=O)c1ccc(NC(=O)C(C)OC(=O)c2ccc3c(c2)nc(C)n3-c2ccccc2)cc1 (stereo not drawn)
i	-0.4	COc1ccc(NC(=O)COc2ccc(S(=O)(=O)N3CCOCC3)cc2C)cc1OC
i	0.08	Oc1ccc(/C=N/N(c2ccccc2)c2ccccc2)cc1O
i	0.09	Cc1nc2cc(-c3ccc(Cl)cc3)nn2c(C)c1CCC(=O)NC(C)c1ccc2c(c1)OCCO2 (stereo not drawn)
i	0.7	COc1ccccc1NC(=O)c1cc(C)nc2ccccc12
i	0.41	Cn1c2ccccc2c(=O)c2c(=O)n(C3CCCCCC3)c(C3CCCCC3)nc21
i	0.01	COc1cccc(N(C(=O)CNC(=O)c2ccco2)C(C(=O)NC2CCCC2)c2cccnc2)c1 (stereo not drawn)
i	1.39	C=CCNC(=S)Nc1nc2c(cc1C(=O)OCC)COC(C)(C)C2
i	-0.15	Cc1ccc(S(=O)(=O)N2CCCOC2)cc1
i	0.93	COc1ccccc1N1CCN(c2ccc([N+](=O)[O-])nc2)CC1
i	-0.63	O=C(CCC(=O)N1CCOc2ccccc21)N1CCCCC1
i	-0.33	O=C(NCC1CC1)c1cc(-c2ccccc2)nn1CC1CC(c2cccc([N+](=O)[O-])c2)=NO1 (stereo not drawn)
i	-2.15	CC(=O)c1ccc(-c2nnc(CCC(=O)N(C)Cc3cccc4cnccc34)o2)s1
i	-0.08	CCN1CCN(c2ccc(S(=O)(=O)N3CCCCC3)cc2NC(=O)/C=C/c2cc(OC)ccc2OC)CC1
i	0.59	Cc1ccc(NC(=O)Nc2c(Cl)cccc2Cl)cn1
i	0.09	O=c1[nH]cnc2ccsc12
i	-1.29	CCCOC(=O)Nc1cc(OC)c(Cl)cc1OC
i	-0.32	NC(=O)CSc1nnc(-c2cccc(S(=O)(=O)N3CCOCC3)c2)n1C1CCCCCC1
i	1.39	CCc1ccc(NC(=O)c2cc(C)nn2-c2ccccc2)cc1
i	0.55	COc1cccc(/C=C/C(=O)c2ccc(C)c([N+](=O)[O-])c2)c1
i	0.03	CSc1ccc(COC(=O)c2cc([N+](=O)[O-])ccc2N2CCOCC2)cc1
-5.98*	-2.4*	C=CCn1c(=O)c(C(=O)NCc2ccc(Cl)cc2)c(O)c2ccccc21
i	-0.36	O=C(CN1CCSCC1)N/N=C/c1ccc(F)cc1F
i	0.06	O=C(Nc1ccc(N2CCOCC2)c(Cl)c1)c1ccccc1Cl
i	-0.28	O=C(c1ccc(CS(=O)Cc2ccccc2Cl)o1)N1CCN(c2cccc(Cl)c2)CC1 (stereo not drawn)
i	0.92	O=C1OC(CO)CN1Cc1ccccc1 (stereo not drawn)
i	0.32	Cc1ccccc1C(=O)c1cccn1CC(=O)NC(C)CCc1ccccc1 (stereo not drawn)
i	2.27	CCOC(=O)Cn1c(SC)nc2sc3c(c2c1=O)CC(C)(C)OC3
i	-0.06	O=C(CCN1CCc2ccccc2C1)Nc1cccc(F)c1
i	1.91	FC(F)(F)c1cnc2c(c1)Nc1ccccc1S2
i	-1.26	Cc1ccc(CN2CCCN(Cc3ccc(F)cc3Cl)S2(=O)=O)cc1
i	0.08	CC1CCN(S(=O)(=O)c2ccc(C(C)C)cc2)CC1
i	0.96	O=C(CCn1nnc(-c2cccs2)n1)NC1CCCCC1
i	0.28	CCC(CC)NC(=O)c1cc2c(C)nn(Cc3ccccc3Cl)c2s1
i	-0.22	CCOC(=O)c1sc(NC(=O)Cc2ccc(C)cc2)nc1C
i	0.11	CCCSc1ccc2nc(-c3ccccc3)cn2c1
i	0.02	CCOC(=O)c1ccc(NS(=O)(=O)CC)cc1
i	-0.83	Cc1cc(C(=O)CN2C(=O)c3ccccc3S2(=O)=O)c(C)n1-c1ccccc1
i	-1.1	Cc1ccc2nc(-c3ccc(NC(=S)NC(=O)C(C)C)cc3)sc2c1
i	-0.65	O=C(CCCn1cnc([N+](=O)[O-])n1)Nc1cccc2ccccc12
i	1.47	COc1ccc(S(=O)(=O)NCCc2csc(-c3cccnc3)n2)cc1
i	0.42	Cn1nc2c(c1C(=O)O)CCCC2
i	-0.1	Cc1ccc(NC2CCCN(C(=O)CN3C(=O)c4ccccc4C3=O)C2)cc1C (stereo not drawn)

Next part, starting with the last two of the part before.
KCNQ2 block	KCNQ2 block baseline	SMILES
i	0.42	Cn1nc2c(c1C(=O)O)CCCC2
i	-0.1	Cc1ccc(NC2CCCN(C(=O)CN3C(=O)c4ccccc4C3=O)C2)cc1C (stereo not drawn)
i	0.04	COC(c1ccccc1)c1nnc(CCC(=O)NCCC(C)C)o1 (stereo not drawn)
i	0.01	Cn1c(=O)c(/C=C/c2ccccc2)nc2ccccc21
i	3.12	COC(=O)c1cc(NC(=O)Cc2cccs2)cc(C(=O)OC)c1
i	-1.27	O=C(CSc1ccc(-c2ccccn2)nn1)NCc1ccccc1
i	3.9	Cc1nn(-c2ccccc2)c(Cl)c1C(=O)NCc1cccs1
i	0.84	OC1CCCN(Cc2cn(Cc3ccccc3)nc2-c2cc3ccccc3o2)C1 (stereo not drawn)
i	0.62	C=CCNC(=O)COC(=O)C1CCN(S(=O)(=O)c2ccc3c(c2)OCCO3)CC1
i	-2	Cc1cccc2cc(CN(Cc3ccc4c(c3)OCO4)Cc3nnnn3C3CCCC3)c(=O)[nH]c12
i	0.45	COc1cc(/C=C2/C(=O)ON=C2C)cc(Cl)c1O
i	0.1	Cc1[nH]c2c(ccc3cccnc32)c1C
i	-1.33	O=[N+]([O-])c1cccc(/C=N/N2CCN(Cc3ccccc3)CC2)c1
i	-1.11	Cc1cccc(NC(=O)C2C3C=CC(C4CC34)C2C(=O)O)c1 (stereo not drawn)
i	0.49	N#CCCN/N=C(\Cc1nc2ccccc2[nH]1)c1ccccc1
i	0.29	N#CC1=C(N)OC2=C(C(=O)CC(c3ccccc3)C2)C1c1cccnc1 (stereo not drawn)
i	0.04	CCn1c(C)[n+](CC)c2ccc(S(=O)(=O)NC)cc21
i	0.64	CCC(Sc1ncccc1C(=O)O)C(=O)N1CCCC1 (stereo not drawn)
i	2.9	CSCC[C@H](NC(=O)OC(C)(C)C)C(=O)N1CCC(C(=O)N[C@@H](Cc2c[nH]c3ccccc23)C(=O)O)CC1
i	-1.93	COc1ccc(N(C(=O)Cc2cccs2)C(C(=O)NC2CCCC2)c2ccncc2)cc1OC (stereo not drawn)
i	0.62	Cc1ccc(NCC(=O)c2ccccc2)cc1Cl
i	1.16	Cc1nnc(N/N=C/c2ccc(-c3ccccc3F)o2)n1N
i	-0.56	CCOC(=O)c1ccc(NC(=O)CCC2COc3ccccc3O2)cc1 (stereo not drawn)
i	-0.76	O=C(CN(C(=O)c1csnn1)c1cccc2ccccc12)NCc1ccc(F)cc1
i	0.96	CC(C)C(=O)NN(C(=O)c1ccccc1)c1ccccc1
i	4.45	CCN(C(=O)COC(=O)/C=C/c1nc2ccccc2s1)C1CCS(=O)(=O)C1 (stereo not drawn)
i	-0.15	O=C(C1COc2ccccc2O1)N1CCN(Cc2ccc(Br)cc2F)CC1 (stereo not drawn)
i	1.9	CCCCOc1ccc(C(O)(CCC)CCN2CCOCC2)cc1 (stereo not drawn)
i	-1.76	CCCOc1cccc(C(=O)N/N=C/c2coc3ccccc3c2=O)c1
i	2.32	CCNc1nc(SCC(N)=O)nc2sc3c(c12)CCN(C)C3
i	0.79	CSc1ccc(S(=O)(=O)NC2CC2)cc1
i	-0.76	N#C/C(C(=S)Nc1ccccc1)=C1/NN=C(N2CCOCC2)N1c1ccccc1
i	0.99	Cc1ccccc1C1N(c2nccs2)C(=O)C2CCCN21 (stereo not drawn)
i	-0.31	CSc1nnc2c3cc(C)ccc3n(Cc3ccccc3)c2n1
i	1.3	Cc1ccc(C(=O)NC(NCc2ccccc2)C(Cl)(Cl)Cl)cc1 (stereo not drawn)
i	1.22	CCCCCCc1ccc(OCC(=O)OC)cc1OCC(=O)OC
i	0.84	O=C(Cc1ccc(NS(=O)(=O)c2cccc(C(F)(F)F)c2)cc1)NCCN1CCOCC1
i	-0.02	CC(=O)NN1C(=O)/C(=C\c2ccccc2)SC1=S
i	-0.05	CN(CC(=O)Nc1ccc(F)c(F)c1F)C(=O)CN1C(=O)C2CCCCC2C1=O (stereo not drawn)
i	-1.45	O=C(CN1CCN(c2ccc(O)cc2)CC1)Nc1ccc2c(c1)OCCO2
i	0.26	Cn1c(CCCOc2ccc(Cl)cc2Cl)nnc1SCC(=O)Nc1cccc(F)c1
i	-2.55	Nc1nc(Nc2ccccc2F)sc1C(=O)c1ccccc1
i	0.9	CCc1ccc(/C(C)=N/NC(=O)c2ccccn2)cc1
i	-1.14	COc1ccccc1/C=C/C(=O)OCC(=O)Nc1cc(C(F)(F)F)ccc1N1CCOCC1
i	-1.03	CCN(CC(=O)Nc1ccccc1OC)C(=O)c1cccc(-n2cccc2)c1
i	1.54	O=C(N/N=C/c1cccnc1)c1ccccc1OCc1ccc(Cl)cc1
i	2.99	CCc1cccc2c(C(=O)CN3C(=O)NC(C)(c4cccc5ccccc45)C3=O)c[nH]c12 (stereo not drawn)
i	0.01	CCOC(=O)c1ccc(NC(=O)N2CCN(c3ccccc3OC)CC2)cc1
i	-1.73	Cc1cc2c(c(=O)n1Cc1cccnc1)C(c1ccccc1)C(C#N)=C(N)O2 (stereo not drawn)
i	0.85	Cn1c(CN2CCCC2)c(C#N)c2ccccc21
i	0.06	O/N=C/c1ccc(OCc2ccccc2)c(Br)c1
i	-0.04	CCc1nonc1NC(=O)c1oc2ccc(Cl)cc2c1C
i	-0.49	CSCC[C@H](NC(=O)OC(C)(C)C)C(=O)N1CCC(C(=O)N[C@@H](C)C(=O)O)CC1
i	-0.25	Clc1ccc(-c2nnc(-c3cccc4ccccc34)o2)cc1Cl
i	-0.71	CCOC(=O)c1c(-c2ccc(OC)cc2)csc1NC(=O)CSc1ncnc2sccc12
i	-0.86	Cc1csc(NC(=O)c2ccc(C)c(S(=O)(=O)N3CCCCC3)c2)n1
i	0.23	COc1ccc(CCC(=O)NCC23CC4CC(CC(C4)C2)C3)cc1
i	-2.15	COc1ccc(S(=O)(=O)NCCc2cc3ccc(C)c(C)c3[nH]c2=O)cc1
i	-1	Cc1cc(C)c(C(N)=O)c(Nc2cccc3ccccc23)n1
i	1.39	C=CCn1cc(-c2cccc(Cl)c2)cc(C#N)c1=O
i	1.01	CCOc1ccc(NC(=O)CCS(=O)(=O)c2ccc(C)cc2)cc1
i	3.71	N#CC1=C(N)Oc2n[nH]c(-c3cccs3)c2C1c1ccco1 (stereo not drawn)

Additional records:
KCNQ2 block	KCNQ2 block baseline	SMILES
i	2.27	CCOC(=O)C1CCN(c2cc(=O)n(C3CCCCC3)c(=O)[nH]2)CC1
i	0.33	CC1S/C(=C(\C#N)C(=O)NCc2ccco2)N(Cc2ccco2)C1=O (stereo not drawn)
i	-0.75	COc1ccc(CNc2cc(C)ccn2)c(O)c1
i	-1.91	Cc1nc(C(=O)NCc2ccccc2)sc1C1(C)CC(c2ccccc2)=NO1 (stereo not drawn)
i	0.4	O=C(CSc1cn(CC(=O)N2CCCCC2)c2ccccc12)NCC1CCCO1 (stereo not drawn)
i	12.8	CCCN(CCC)S(=O)(=O)c1ccc(C(=O)OCCN2C(=O)c3cccc4c(N5CCOCC5)ccc(c34)C2=O)cc1
i	1.88	CCN(C(=O)CN1CCN(c2ccccc2)CC1)c1c(N)n(Cc2ccccc2)c(=O)[nH]c1=O
i	-2.82	CC1(c2ccccc2)CC(C)(C)N2C(=O)C(=O)c3cccc1c32 (stereo not drawn)
i	0.6	N#Cc1cccc(C#N)c1Oc1ccc(S(=O)(=O)Nc2ccc(Cl)cc2)cc1
i	0.03	COc1cc2c(cc1OC)C[N+](C)(C)CC2
i	0.96	CCn1cc(S(=O)(=O)c2ccc(OC)cc2)c(=O)c2cc(F)c(N3CCN(C)CC3)cc21
i	-1.21	Cc1cccc(-n2ncc3c2CCCC3NC(=O)C2=CC(=O)CC(C)(C)O2)c1C (stereo not drawn)
i	0.23	O=C(O)CC1(CC(=O)Nc2ccccc2Br)CCCC1
i	0.07	Cc1cccc(N2CCN(C(=O)c3cc4n(n3)C(C(F)(F)F)CC(c3ccco3)N4)CC2)c1C (stereo not drawn)

In the list so far, these have fluorine:
KCNQ2 block	KCNQ2 block baseline	SMILES
i	-0.36	O=C(CN1CCSCC1)N/N=C/c1ccc(F)cc1F
i	-0.06	O=C(CCN1CCc2ccccc2C1)Nc1cccc(F)c1
i	1.91	FC(F)(F)c1cnc2c(c1)Nc1ccccc1S2
i	-1.26	Cc1ccc(CN2CCCN(Cc3ccc(F)cc3Cl)S2(=O)=O)cc1
i	1.16	Cc1nnc(N/N=C/c2ccc(-c3ccccc3F)o2)n1N
i	-0.76	O=C(CN(C(=O)c1csnn1)c1cccc2ccccc12)NCc1ccc(F)cc1
i	-0.15	O=C(C1COc2ccccc2O1)N1CCN(Cc2ccc(Br)cc2F)CC1 (stereo not drawn)
i	0.84	O=C(Cc1ccc(NS(=O)(=O)c2cccc(C(F)(F)F)c2)cc1)NCCN1CCOCC1
i	-0.05	CN(CC(=O)Nc1ccc(F)c(F)c1F)C(=O)CN1C(=O)C2CCCCC2C1=O (stereo not drawn)
i	0.26	Cn1c(CCCOc2ccc(Cl)cc2Cl)nnc1SCC(=O)Nc1cccc(F)c1
i	-2.55	Nc1nc(Nc2ccccc2F)sc1C(=O)c1ccccc1
i	-1.14	COc1ccccc1/C=C/C(=O)OCC(=O)Nc1cc(C(F)(F)F)ccc1N1CCOCC1
i	0.96	CCn1cc(S(=O)(=O)c2ccc(OC)cc2)c(=O)c2cc(F)c(N3CCN(C)CC3)cc21
i	0.07	Cc1cccc(N2CCN(C(=O)c3cc4n(n3)C(C(F)(F)F)CC(c3ccco3)N4)CC2)c1C (stereo not drawn)
